Screens from PubChem BioAssay.
KCNQ2 enhance: KCNQ2 (rat) channel potentiation; O88943; CHO-K1 KCNQ2, FluxOR thallium flux fluorescence; hits give high values; B-score at 10 µM; 310,000 compounds, 0.54% hits; AID 2239;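 active = fluorescence ratio B-score at least 3 SD of library B-scores, with initial fluorescence B-score within 3 SD, cut at about 5.3 in these data; same plate scores as AID 2156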;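 note: B-score of peak minus minimum over baseline fluorescence ratio after K+ and Tl+ stimulus; positive B-score means potentiation of KCNQ2 with more thallium influx and brighter signal; only the inactives scoring about 0 or higher are listed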
Target sequence (O88943 whole entry, looked up): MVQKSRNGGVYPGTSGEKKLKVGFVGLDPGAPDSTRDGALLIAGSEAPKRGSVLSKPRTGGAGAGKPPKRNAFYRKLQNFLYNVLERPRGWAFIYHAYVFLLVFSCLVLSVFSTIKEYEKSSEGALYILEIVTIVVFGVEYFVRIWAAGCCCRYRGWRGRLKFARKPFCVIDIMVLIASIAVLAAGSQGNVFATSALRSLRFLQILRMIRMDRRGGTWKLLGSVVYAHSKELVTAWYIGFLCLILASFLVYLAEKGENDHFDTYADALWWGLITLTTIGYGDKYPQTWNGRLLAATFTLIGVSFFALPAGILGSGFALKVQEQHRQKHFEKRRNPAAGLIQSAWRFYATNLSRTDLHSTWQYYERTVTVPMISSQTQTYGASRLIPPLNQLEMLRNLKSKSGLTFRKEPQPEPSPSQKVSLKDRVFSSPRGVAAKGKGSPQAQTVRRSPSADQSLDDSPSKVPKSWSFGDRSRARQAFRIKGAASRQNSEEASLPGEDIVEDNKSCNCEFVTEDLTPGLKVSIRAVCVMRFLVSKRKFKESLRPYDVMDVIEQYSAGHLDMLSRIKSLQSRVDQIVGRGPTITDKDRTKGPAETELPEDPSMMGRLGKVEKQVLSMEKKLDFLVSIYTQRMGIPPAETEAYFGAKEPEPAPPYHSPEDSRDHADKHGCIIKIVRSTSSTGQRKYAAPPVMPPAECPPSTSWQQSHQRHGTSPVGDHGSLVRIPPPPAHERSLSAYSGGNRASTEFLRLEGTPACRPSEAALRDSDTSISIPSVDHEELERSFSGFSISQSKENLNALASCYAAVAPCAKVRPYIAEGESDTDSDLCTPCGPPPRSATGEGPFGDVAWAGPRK
KCNQ2 enhance baseline: further read-out of KCNQ2 enhance, marked with its call; B-score; compound at 10 µM; measured here: initial fluorescence intensity artifact check;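 brightness before thallium and not channel activity; 0 = typical well and far values either way flag optical interference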
Numbers without * were called inactive. These rows are one share of the data, so the mix of outcomes need not match the whole.

Below each SMILES – KCNQ2 enhance	KCNQ2 enhance baseline
CS(=O)(=O)N(CC(=O)NCCSCc1ccccc1Cl)c1ccccc1F
 : 1.23	-0.61
O=C(Cc1ncc(C(F)(F)F)cc1Cl)NCc1cccnc1
 : 1.29	1.26
CC(C)(Cc1ccc(O)cc1)NC(=O)CC(=O)N/N=C/c1ccc([N+](=O)[O-])cc1
 : 1.2	-0.35
CCCCNS(=O)(=O)c1ccc(OC)cc1
 : 1.19	-0.22
O=c1c(C/C=C/c2ccccc2)c(O)ccn1Cc1cccc(Cl)c1
 : 0.63	0.93
C=CCOc1ccccc1/C=C/C(=O)O
 : 1.16	0.77
COc1ccc(C)cc1CN1C(=O)c2ccccc2C1=O
 : 0.5	0.19
CCOC(=O)Cn1nnc(-c2cccc(OC)c2)n1
 : 1.23	-2.04
CNC(=O)c1cc(S(=O)(=O)NC2CCCCCC2)ccc1C
 : 1.4	-0.17
COc1cc(NS(=O)(=O)c2ccc(F)cc2)c(OC)cc1NC(C)=O
 : 0.02	0.93
COc1ccc(/C=N/NC(=O)c2ccn[nH]2)cc1CN1CCOCC1
 : 0.92	0.32
CCC(C)[C@H](NC(=O)Nc1cccc(Br)c1)C(=O)OC (some centres undefined)
 : 0.01	0.5
COCc1cc(=O)[nH]c(/N=C(\N)Nc2ccccc2C)n1
 : 0.8	-0.01
N#CC1=C(N)Oc2c(ccc3cccnc23)C1c1cccnc1 (centres undefined)
 : 2.12	-0.33
O=C(C1=NN(c2ccccc2)C2C(=O)N(c3ccccc3Cl)C(=O)C12)c1ccccc1 (centres undefined)
 : 0.6	-1.52
CC(C)NC(=O)CN1C(=O)C(=O)c2ccccc21
 : 0.15	0.2
Cc1ccc(Cn2nnc3c(=O)n(CC(=O)OCc4ccccc4)cnc32)cc1
 : 0.01	0.01
CN1CCN(c2nc(Nc3ccccc3)nc(N)c2[N+](=O)[O-])CC1
 : 1.16	-0.87
CN(CCC#N)C(=O)CSc1nc2scc(-c3ccccc3)c2c(=O)[nH]1
 : 0.87	-0.91
O=C(CNC(=O)c1ccco1)Nc1ccc2c(c1)OCCO2
 : 1.45	0.07
Nc1c(S(=O)(=O)c2cccc(Cl)c2)c2nc3ccccc3nc2n1/N=C/c1ccc(O)c(O)c1
 : 0.26	-0.96
CCC(=O)Nc1ccc2nc(SCC(=O)N3CCCC3)sc2c1
 : 0.06	0.44
CCNc1nc(NC(C)C)nc(OCCOC(=O)Nc2ccccc2)n1
 : 0.11	-2.22
COc1ccc(-c2cccc(NS(=O)(=O)c3ccccc3[N+](=O)[O-])c2)nn1
 : 0.26	1.11
Cc1nn(-c2ncc(C(F)(F)F)cc2Cl)c(=O)n1-c1c(F)cccc1F
 : 0.37	-2.07
Cc1cc(C)n2cc(CSCc3ccco3)nc2n1
 : 1.4	-2.64
Cc1cc(C)n(-c2ccc(NC(=O)C3CCCCN3C(=O)c3occc3C)cc2)n1 (centres undefined)
 : 0.39	-1.07
Cc1ccc(/C=N/NC(=O)CNC(=O)c2cccs2)o1
 : 0.36	-2.6
CNC(=S)NCc1ccc2[nH]c3c(c2c1)CCCC3
 : 0.02	-2.12
CC1CC(C)CN(C(=O)CSc2ccsc2[N+](=O)[O-])C1 (centres undefined)
 : 1.74	-0.87
Cc1cccc(-n2ncc3c(NCc4cccs4)ncnc32)c1
 : 0.67	-0.16
Cn1nnnc1P(=O)(c1ccccc1)c1ccccc1
 : 0.04	-0.35
COc1ccc2[nH]c3c(c2c1)CCNC3(C)CCc1ccc(Cl)nc1 (centres undefined)
 : 0.14	-0.04
COc1ccc(CNC(=O)c2ccc(-c3ccccc3)cc2)cc1
 : 1.06	-0.03
O=[N+]([O-])c1ccc(S(=O)(=O)N2CCC3(CC2)OCCN3S(=O)(=O)c2cccs2)cc1
 : 0.08	-1.24
CC(C(=O)O)N1C(=O)C2C3CC(C2C1=O)C1C(c2ccccc2)c2sc(=O)[nH]c2SC31 (centres undefined)
 : 0.97	-0.19
O=C1C2C3C=CC(CC3)C2C(=O)N1c1ccc(Cl)cc1 (centres undefined)
 : 1.11	-0.59
CN(C)S(=O)(=O)c1ccc2c(c1)C(CC(=O)O)OC2=O (centres undefined)
 : 0.53	-0.02
COc1ccc(CN2CCN(S(=O)(=O)c3ccc(F)cc3)CC2)c(OC)c1OC
 : 0.09	0.08
COc1ccc(/C=N/NC(=O)c2cccnc2)cc1COc1ccc(NC(C)=O)cc1
 : 0.24	0.07
O=C(COC(=O)C1CCN(S(=O)(=O)c2ccc3c(c2)OCCO3)CC1)Nc1cccc2ccccc12
 : 0.36	0.8
CCCCCC(=O)NC(=S)Nc1ccc(N2CCOCC2)cc1
 : 0.11	-0.12
COc1ccc(CNC(=O)[C@@H](C)NC(=O)C2CCN(C(=O)[C@@H](N)CCSC)CC2)cc1
 : 1.11	-1.01
NC(=O)c1ccc2c(c1)S(=O)(=O)c1ccccc1C2=O
 : 0.42	-1.86
CCCCOC(=O)c1ccc(O)cc1
 : 0.9	-0.12
CCCCn1c(SCC(=O)NC2CCS(=O)(=O)C2)nc2cc(S(N)(=O)=O)ccc21 (centres undefined)
 : 1.29	-0.84
CCCc1nnc(NC(=O)Nc2ccc(OC)cc2)s1
 : 1.49	0.75
COc1cc(NC(=O)c2ccc(NS(=O)(=O)c3c(C)noc3C)cc2)cc(OC)c1
 : 0.08	2.13
COc1ccc(F)cc1S(=O)(=O)NC1CCCC1
 : 1.93	-0.76
COc1ccc(OC)c(-n2c(-c3ccccc3)n[nH]c2=S)c1
 : 0.56	-0.32
Cc1cccc(Nc2nc(N)nc(CCl)n2)c1
 : 1.73	-1.07
COc1ccc(C(=O)NCC(=O)OCC(=O)c2ccc3c(c2)OCCO3)cc1
 : 0.03	-0.66
COC(=O)c1cnc(NNS(=O)(=O)c2ccc(C(F)(F)F)cc2)nc1C(F)(F)F
 : 0.28	0.17
CC1CCCN(C(=O)COC(=O)Cc2c(F)cccc2Cl)C1 (centres undefined)
 : 0.84	-1.53
N/C(Cc1nc2ccccc2s1)=N\O
 : 0.08	1.76
CCOc1ccc(NC(=O)CN(C)C(=O)c2cc(S(=O)(=O)N3CCCCC3)ccc2C)cc1OCC
 : 0.59	-1.72
COC(=O)c1c(NS(=O)(=O)c2cccs2)sc2c1CCCC2
 : 0.79	-0.01
CCCCN1c2ccccc2N(CCCO)c2cc(C)nnc21
 : 0.38	-0.96
COc1cccc(C2Nc3ccc4ccccc4c3C3=C2C(=O)CC(C)(C)C3)c1OCC(=O)O (centres undefined)
 : 0.24	1.33
CCOc1ccc(CN2CCNC(=O)C2CC(=O)NCCc2cnccn2)cc1 (centres undefined)
 : 0.02	1.05

Whole records as entered above. Screens in order: KCNQ2 enhance, KCNQ2 enhance baseline
Cc1cccc(-n2ncc3c(NCc4cccs4)ncnc32)c1 across the screens: 0.67, -0.16
COc1ccc(CNC(=O)[C@@H](C)NC(=O)C2CCN(C(=O)[C@@H](N)CCSC)CC2)cc1 across the screens: 1.11, -1.01
COc1ccc(/C=N/NC(=O)c2cccnc2)cc1COc1ccc(NC(C)=O)cc1 across the screens: 0.24, 0.07
CCCCCC(=O)NC(=S)Nc1ccc(N2CCOCC2)cc1 across the screens: 0.11, -0.12
COc1cc(NC(=O)c2ccc(NS(=O)(=O)c3c(C)noc3C)cc2)cc(OC)c1 across the screens: 0.08, 2.13

Three compounds already listed, sorted by number of heavy atoms, falling.
Below each SMILES – KCNQ2 enhance	KCNQ2 enhance baseline
CCCCN1c2ccccc2N(CCCO)c2cc(C)nnc21
 : 0.38	-0.96
COC(=O)c1c(NS(=O)(=O)c2cccs2)sc2c1CCCC2
 : 0.79	-0.01
CCCc1nnc(NC(=O)Nc2ccc(OC)cc2)s1
 : 1.49	0.75

Remaining list, next part.
Below each SMILES – KCNQ2 enhance	KCNQ2 enhance baseline
N#Cc1ccc(OCc2cccc(S(=O)(=O)N3CCOCC3)c2)cc1
 : 0.14	-0.21
COc1ccccc1N1CCSC1C(N)=O (centres undefined)
 : 0.39	1.23
N#Cc1ccc(NC(=O)C2CC(c3ccc(F)cc3)=NO2)cc1 (centres undefined)
 : 0.6	-0.9
CCN1C(=O)C(CC(=O)Nc2cccc(C(C)=O)c2)S/C1=N\c1ccccn1 (centres undefined)
 : 1.05	-1.31
CC(C)C(=O)N1CCN(c2ccccc2N)CC1
 : 1.4	0.27
CC(C)c1ccccc1NC(=O)Nc1ccc2c(c1)OCO2
 : 1.22	0.01
COc1ccc(NC(=O)NC2(C(=O)N3CCCCCC3)CCCCC2)cc1
 : 0.48	0.7
Cc1onc(-c2c(Cl)cccc2Cl)c1C(=O)c1c[nH]c(C(=O)NCC2CCCO2)c1 (centres undefined)
 : 0.37	3.23
C=CCN(c1ccccc1)S(=O)(=O)c1cccc(C(=O)NCc2ccncc2)c1
 : 0.9	1.43
C[C@@H](NCCc1ccc(O)cc1)[C@@H](O)c1ccc(O)cc1
 : 0.08	-1.57
COCCSc1nnc(NC(=O)CSc2ccccc2)s1
 : 0.27	-1.28
COc1cc(OC)cc(C(=O)NCCSC2CCCCC2)c1
 : 1.7	-0.01
CC(=O)N/C(=N/c1nc(C)cc(C)n1)Nc1ccc(NC(C)=O)cc1
 : 0.78	5.75
CCc1ccc(N2CC(C(=O)Nc3ccc(S(=O)(=O)N4CCCCC4)cc3)CC2=O)cc1 (centres undefined)
 : 0.73	-0.41
O=C(Cc1ccccc1)NN1C(=O)/C(=C/c2ccccc2C(=O)O)SC1=S
 : 2	-0.34
Cc1c(NC(=O)c2noc(C(C)C)c2[N+](=O)[O-])c(=O)n(-c2ccccc2)n1C
 : 0.65	-1.83
COc1ccccc1C(c1nnnn1C(C)(C)C)N1CCN(Cc2ccccc2)CC1 (centres undefined)
 : 1.8	-0.7
COc1ccc(-c2cn(-c3ccc(C)cc3C)c(=S)[nH]2)cc1OC
 : 0.78	0.06
CS(=O)(=O)Nc1ccc(S(=O)(=O)NC2CCCCC2)cc1
 : 1.1	0.81
COc1ccc(NC(=O)CC2C(=O)N(c3cccc(C)c3)C(=O)N2C2CCCCC2)cc1 (centres undefined)
 : 1.69	-0.82
CCCSc1nc2cc(OC)c(OC)cc2c(=N)n1CCCN1CCOCC1
 : 1.12	0.01
C=CCOc1c(Br)cc(CNc2ccc(NC(=O)C(C)C)c(OC)c2)cc1OCC
 : 6.61*	1.01*
CCOc1ccc(OCC)c(S(=O)(=O)N2CCCCC2)c1
 : 0.77	-0.07
CCn1cc(/C=C/C(=O)c2ccc(O)cc2)c(C)n1
 : 0.86	-1.9
COc1cccc(C(=O)Nc2ccc3nc4n(c(=O)c3c2)CCCC4)c1
 : 1.23	0.89
COc1ccc(C2=NOC3(CC(=O)N(c4ccc(C)cc4)C3=O)C2)cc1 (centres undefined)
 : 1.09	0.78
COc1cc(C(=O)OCC(=O)Nc2cccc(S(=O)(=O)N3CCOCC3)c2)ccc1OCC(C)C
 : 1.83	0.59
CN(CC(=O)Nc1ccccc1Cl)C(=O)COC(=O)/C=C/c1ccccc1
 : 0.25	-0.12
COc1ccc(CCNC(=O)CSc2nnc3ccc(-c4cccnc4)nn23)cc1
 : 1.52	-0.13
c1csc(-c2ccnc3ncnn23)c1
 : 0.56	-0.06
CN1N=C(C(F)(F)F)CC1=O
 : 0.84	-0.01
Cc1ccc(S(=O)(=O)CCC(=O)Nc2nc(C(C)(C)C)cs2)cc1
 : 0.05	-0.28
CCOc1ccc(CNC(=O)CCc2cn(Cc3ccccc3)c3ccccc23)cc1
 : 0.46	0.83
CC(C)c1ccc(NC(=O)C2CCN(c3ncnc4c3nc3n4CCCCC3)CC2)cc1
 : 0.45	-0.96
CCN(CC)S(=O)(=O)c1ccc2[nH]c(=O)cc(C(=O)Nc3ccc(C)cc3)c2c1
 : 0.91	0.99
C=CCn1c(SCC(=O)N2CCCC2)nc2c([nH]c3ccccc32)c1=O
 : 0.31	-0.19
Cn1nnnc1SCc1nnc(-c2ccc(Cl)cc2)o1
 : 0.23	-0.4
Cc1ccc(C2CC2C(=O)NNC(=S)Nc2cccc(C)c2)cc1 (centres undefined)
 : 9.2*	0.33*
O=C(/C=C/c1ccc(-c2cccc([N+](=O)[O-])c2)o1)N1CCOCC1
 : 0.01	-0.98
CCOC(=O)C1CCCN(S(=O)(=O)c2cc(OCC(N)=O)c(C)cc2Cl)C1 (centres undefined)
 : 2.13	-0.49
COc1ccccc1Nc1nc(N)nc(CCl)n1
 : 0.55	-0.8
COc1cc(C(C)=O)ccc1COc1ccc(C(=O)OCC(=O)NC(C)(C)C)cc1OC
 : 0.7	-1.75
CCC(=O)Nc1nnc(S(=O)(=O)N(C)c2ccccc2)s1
 : 0.02	-0.57
CCOC(=O)c1sc2nc(CN3CCN(c4cccc(C(F)(F)F)c4)CC3)[nH]c(=O)c2c1C
 : 1.39	-1.81
O=C(Nc1ccc(S(=O)(=O)N2CCOCC2)cc1)c1cc(-c2cc(Cl)ccc2O)n[nH]1
 : 1.09	-2.62
O=[N+]([O-])c1ccc(-c2ccc(S(=O)(=O)N3CCOCC3)cc2)cc1
 : 0.37	-0.82
O=C(Nc1ccc2ccccc2c1)c1ccc(Cl)cc1Cl
 : 0.71	1.65
Cc1ccc(C)c(NC(=O)CSc2nncn2C)c1
 : 2.29	-0.44
COc1cc(=O)oc(-c2ccccc2)c1C(C)=O
 : 0.52	-0.79
O=C(COc1ccccc1)Nc1ncn[nH]1
 : 0.17	-1.95
